# 2A Renilla = FMDV 2A StopGo reporter, Renilla signal | AID 1745857 | Potency, µM (titrated, usually from 57.5 µM), for the others: at the top dose signal change, negative = less light | 120,000 tested, 0.32% active | HEK cells with a luciferase reporter of 2A StopGo recoding; active means well fitted falling curve with a large enough effect; inconclusive means small, poorly fitted or top-dose-only effect; inactive means no such curve, though single readings can be large or run the other way; also: nearly all actives have a fitted effect of over 55% in size; overnight with compound
# StopGo FLuc = lowers the firefly signal of an FMDV 2A StopGo reporter; HEK cells with a luciferase reporter of 2A StopGo recoding; Potency, µM (doses to about 57.5 µM), without a hit: at the top dose signal change, negative = less light; 120,000 tested, 0.23% active; AID 1745856; active = well fitted falling curve with a large enough effect; inconclusive = small, poorly fitted or top-dose-only effect; inactive = no such curve, though single readings can be large or run the other way; also: nearly all actives have a fitted effect of over 60% in size; overnight with compound
# * hit, by the source's call; ? = inconclusive; [ ] = dose if it differs, or a comment. % is scaled to controls: 0 for no effect and ±100 for the full control effect; potency is read from the fitted curve at half-maximal effect. These rows are one share of the data; rates above refer to the full screens.
SMILES,2A Renilla,StopGo FLuc
CC1CCN(c2oc(/C=C/c3cccs3)nc2C#N)CC1,55%[activator],-24%
Cc1ccc(OCC(O)Cn2nc(-c3ccc(F)cc3)oc2=O)cc1 (stereo unspecified),-13%,11%
COc1ccc2c(CNCc3cccs3)c(C(=O)O)n(Cc3cccc(F)c3)c2c1,138%[activator],-30%
CC(C)(C)c1ccc(C(=O)OCCN2CCCCC2)cc1,-3%,0%
O=C(CCCCCCCC(=O)NNC(=O)c1cccc(Cl)c1)NNC(=O)c1cccc(Cl)c1,-13%,6%
Nc1c(C(=O)c2ccc3c(c2)OCO3)sc(Nc2ccccc2F)c1S(=O)(=O)c1ccccc1,-12%,7%
CC1CCCCN1CCNC(=O)CCCc1nc2ccccc2[nH]1 (stereo unspecified),-13%,-5%
C=C(C)Cn1c(SCCN2CCOCC2)nc2c1c(=O)[nH]c(=O)n2C,3%,9%
CC(COc1cccc(C#N)c1)CN1CCC(C(O)(c2ccccc2)c2ccccc2)CC1 (stereo unspecified),3%,-13%
O=C(Cc1ccccc1F)NCc1cccnc1N1CCCCC1,27%,1%
Cc1c(C(=O)c2ccccc2)oc2ccc(NC(=O)c3ccncc3)cc12,1%,9%
COC(=O)C1=CCCN(C)C1,-10%,-18%
COc1ccc(-c2cc(Nc3ccc(Br)cc3)nc(C)n2)cc1,24%,31%[activator]
Cc1nc(-c2ccccc2)sc1-c1ccc(SCC(=O)NCc2ccccc2)nn1,-12%,-11%
CSc1ccccc1NC(=O)C(C)Nc1ccc2c(c1)CCN2C(C)=O (stereo unspecified),-7%,33%[activator]
CC(C)c1ccc(CNC(C)(C)CO)cc1,-5%,7%
O=C(c1n[nH]c(=O)c2ccccc12)N1CCc2sccc2C1,8%,11%
Cc1c(C(=O)N2CCCCCC2)c(S(=O)(=O)NCc2ccc(Br)cc2)c(C)n1C,-35%,-6%
COC(=O)CC1C(=O)NCCN1S(=O)(=O)c1ccc(Cl)cc1C(F)(F)F (stereo unspecified),7%,9%
C=CCNCc1ccsc1,-10%,6%
Cc1ccccc1C(=O)NCc1ccc2c(c1)CCN2C(=O)c1ccc(F)cc1,-8%,-18%
O=c1oc2ccccc2c(N2CCCC2)c1NS(=O)(=O)c1ccccc1Cl,15%,0%
Cc1cccc(NC(=O)CN(C)C(=O)Cc2ccc3ccccc3c2)c1C,7%,-7%
Cc1cc2oc(=O)cc(CN(C)CCO)c2cc1C,10%,0%
CCN(Cc1cccs1)C(=O)c1[nH]c2c(c1C)C(=O)CCC2,42%[activator],20%
CCOC(=O)C1=CNc2nncn2C1(O)C(F)(F)F (stereo unspecified),4%,-1%
Cc1ccccc1OC(=O)C(c1ccccc1)c1ccccc1,-5%,2%
COc1ccc(C2CC(=O)Nc3c2c(C)nn3-c2ncnc3nc[nH]c23)cc1OC(C)C (stereo unspecified),11%,24%
COc1ccc(-c2nc(SCc3ccccc3)n(C(C)=O)n2)cc1,1%,92%[activator]
Cc1nn(C(C)(C)C)c(OC(=O)C(C)(C)C)c1Sc1ccccc1,-8%,-20%
CCCOC(=O)c1ccc(Nc2nc(C(=O)OCC)nc3ccccc23)cc1,11%,3%
CCNC(=O)CC1C(=O)N(c2ccc(C)cc2)C(=O)N1CCOC (stereo unspecified),-12%,-19%
Cc1cc(C)cc(-n2ncc3c2NC(=O)CC32C(=O)Nc3ccc(C(C)C)cc32)c1 (stereo unspecified),-8%,-10%
CCCCCCCCS(=O)(=O)CCSC(=N)N,-1%,2%
CC(C)N(C(=O)c1ccc(I)cc1)C(C)C,29%,16%
CCOC(=O)CN(CC(=O)NC(=O)NC)CC(C)C,0%,-4%
O=c1[nH]c2ccc(S(=O)(=O)Nc3c(NC4CCCCC4)c4ccccc4oc3=O)cc2o1,12%,1%
COc1ccc(-c2cc(NCc3ccc(F)cc3)n3cnnc3n2)cc1,-11%,-9%
Cc1ccccc1C(=O)N1CCC(c2nc3ccccc3o2)CC1,22%,15%
Oc1c(C(c2ccc(Cl)cc2Cl)N2CCN(c3ccccc3)CC2)sc2nc(-c3ccco3)nn12 (stereo unspecified),3%,-5%

# Given as tab-separated lines: 3 of the compounds above.
smiles	2A Renilla	StopGo FLuc
Cc1c(C(=O)N2CCCCCC2)c(S(=O)(=O)NCc2ccc(Br)cc2)c(C)n1C	-35%	-6%
CSc1ccccc1NC(=O)C(C)Nc1ccc2c(c1)CCN2C(C)=O (stereo unspecified)	-7%	33%[activator]
O=c1oc2ccccc2c(N2CCCC2)c1NS(=O)(=O)c1ccccc1Cl	15%	0%

# (more compounds)
SMILES,2A Renilla,StopGo FLuc
Cc1cccc(NS(=O)(=O)c2cc(-c3ccno3)oc2C)c1C,279%[activator],12%
Cc1ccc(N(Cc2ccco2)C(=O)CCc2ncc(-c3ccc(F)cc3F)o2)cc1,-5%,10%
Cc1ccc(S(=O)(=O)N2CCN(CCNC(=O)COc3ccc(C(C)C)cc3)CC2)cc1,1%,1%
O=C(CCc1cccnc1)NCCc1c[nH]c2ccccc12,-5%,10%
COc1ccc(NC(=O)CCn2nc(-c3ccc(Cl)cc3)c3ccccc3c2=O)cc1,-5%,-9%
CCN(CC)C(=O)Cn1c(=O)n(Cc2ccc(C(=O)NCc3ccccc3Cl)cc2)c(=O)c2ccccc21,51%[activator],19%
Cc1cc(C)c2oc(C(=O)NCc3ccccc3)cc(=O)c2c1,-3%,-3%
CCc1cc(C)nc(C)c1O,7%,5%
CC(C)c1cnc2c(c1SCC(=O)Nc1ccccc1C(F)(F)F)c(=O)n(C)c(=O)n2C,-10%,-13%
COc1ccc(-c2cn3cccnc3n2)cc1NC(=O)Cc1ccccc1,19%,0%
O=C(NC12CC3CC(CC(C3)C1)C2)c1ccc(Cl)cc1,9%,11%
O=C(O)c1cc(Nc2nc(-c3ccccc3)cs2)ccc1O,13%,0%
CCN(CC)c1nc2ccccc2nc1C(=O)Nc1cccc(F)c1,11%,1%
CCn1cc(C(=O)NCCc2ccc(OC)c(OC)c2)c(=O)c2cc(S(=O)(=O)N3CCCCCC3)ccc21,-1%,-12%
Cc1ccc(NC(=O)CSc2nc3c(c(=O)[nH]2)CCC3)cc1,-7%,10%
CS(=O)(=O)N(CC(=O)Nc1ccccc1C(=O)NCC1CCCO1)c1ccc(F)c(F)c1 (stereo unspecified),24%,-4%
CCc1cnc2c(c1SCC(=O)Nc1ccccc1C)c(=O)n(C)c(=O)n2C,4%,8%
CN1CCC(=C2c3ccccc3C=Cc3ccccc32)CC1,-6%,-9%[11.5 µM]
COc1ccc(Nc2nc(Nc3cc(C)ccc3C)c3nccnc3n2)cc1Cl,17%,0%
Cc1nnc2c(N3CCN(c4ccccc4F)CC3)nc3ccccc3n12,2%,3%

# Whole records as entered above. Order of values: 2A Renilla | StopGo FLuc
# Cc1cccc(NS(=O)(=O)c2cc(-c3ccno3)oc2C)c1C reads 279%[activator] | 12%
# CC(C)c1cnc2c(c1SCC(=O)Nc1ccccc1C(F)(F)F)c(=O)n(C)c(=O)n2C reads -10% | -13%
# Cc1nnc2c(N3CCN(c4ccccc4F)CC3)nc3ccccc3n12 reads 2% | 3%
# O=C(NC12CC3CC(CC(C3)C1)C2)c1ccc(Cl)cc1 reads 9% | 11%
# CCc1cnc2c(c1SCC(=O)Nc1ccccc1C)c(=O)n(C)c(=O)n2C reads 4% | 8%

# The listing picks up with the 2 entries that preceded the break.
SMILES,2A Renilla,StopGo FLuc
COc1ccc(Nc2nc(Nc3cc(C)ccc3C)c3nccnc3n2)cc1Cl,17%,0%
Cc1nnc2c(N3CCN(c4ccccc4F)CC3)nc3ccccc3n12,2%,3%
CCn1cc2nc(SCc3c(F)cccc3Cl)n(CCc3ccccc3)c(=O)c2n1,-8%,5%
CCCc1cc(=O)n2c(C(=O)Nc3ccccc3)c(C(=O)Nc3cccc(C)c3C)sc2n1,10%,22%
CC(C)(C)OC(=O)N1CCC(c2c(C(=O)NCCN3CCC(Cc4ccccc4)CC3)cnn2-c2cccc(Cl)c2)CC1,-4%,-14%
Cc1ccc(OC(C)c2nc(-c3ccc(Br)o3)no2)cc1C (stereo unspecified),-3%,32%[activator]
CCc1nn(CC(=O)N2CCC(C)CC2)c(=O)c2cc3occc3n12,0%,-6%
O=c1oc2ccccc2c(O)c1C(c1ccccc1)c1c(O)c2ccccc2oc1=O,8%,?
N#Cc1ccc(/C=N/Nc2ccc(F)cc2)cc1,-7%,78%[activator]
CCn1nc(-c2ccc(C)c(S(=O)(=O)NCc3ccccc3)c2)c2c(c1=O)CCCC2,83%[activator],-24%
Cn1ccc2cc(S(=O)(=O)N3CCC(C(=O)NCCCN4CCOCC4)CC3)ccc21,9%,19%
COc1ccc(CN(C(=O)c2ccc(C#N)cc2)C(C)C2CC2)cc1 (stereo unspecified),2%,5%
O=C(CSc1ccc2c(c1)OCCCO2)c1ccc(NC(=O)c2ccccc2)cc1,-4%,0%
O=C(CSc1nc(C2CC2)nc2ccccc12)NC1CCCC1,-18%,-10%
Cc1ccc(CNC(=O)CCCn2c(=O)c3ccccc3n(CC(=O)Nc3ccc(C)cc3)c2=O)cc1,-7%,-11%
COC(=O)c1cc(NC(=O)c2ccc3c(c2)N(Cc2cccc(Cl)c2)C(=O)c2ccccc2S3=O)cc(C(=O)OC)c1 (stereo unspecified),2%,-10%
O=C(c1ccc(F)cc1)N1CCC(c2nc3ccccc3s2)CC1,?,?
CSc1ccccc1N=Cc1ccc(Cl)c(Cl)c1,8%,32%[activator]
N#Cc1ccc(CN2CCCc3ccccc32)cc1,0%,37%[activator]
COc1ccccc1-n1nc(-c2ccccc2)c2cnc3cc(C(F)(F)F)ccc3c21,-4%,3%
O=C(CCCOc1ccc(Cl)cc1Cl)OCC(=O)c1ccccc1,-10%,0%
COc1ccc(NC(=O)C2CCCN(S(=O)(=O)c3ccc4c(c3)CCCC(=O)N4)C2)c(OC)c1 (stereo unspecified),5%,10%
CCOC(=O)c1ccc(Nc2c(-c3ccc(O)c(OC)c3)nc3nc[nH]n23)cc1,-11%,-4%
CC(C)c1ccc(NC(=O)C(Cc2ccccc2)NS(=O)(=O)c2ccc3c(c2)oc(=O)n3C)cc1 (stereo unspecified),7%,-5%
CN(C)C(=O)Oc1cc(OC(=O)N(C)C)cc(C(O)CNC(C)(C)C)c1 (stereo unspecified),-12%,-9%
CCCC(=O)Nc1cccc(-c2nc3ncccc3o2)c1,25%,73%[activator]
O=C(CSc1nc2c([nH]c3ccccc32)c(=O)n1-c1ccccc1)Nc1cccc(C(F)(F)F)c1,-8%,-17%
c1coc(-c2nnc(CSc3ccc4c(c3)OCCCO4)o2)c1,17%,100%[activator]
C=CC[N+](C)(C)CC(=O)c1ccccc1,4%,4%
Cc1cccn2c(=O)c(/C=C(\C#N)c3nc4ccccc4[nH]3)c(Oc3ccc(C(C)(C)C)cc3)nc12,18%,-9%
COc1ccc(NC(=O)Cn2c(=O)n(Cc3ccccc3Cl)c(=O)c3cc(OC)c(OC)cc32)cc1,-7%,-8%
CCc1ccc(C(=O)N(Cc2ccccn2)C2CC2)s1,19%,13%
CCC(C)NC(=O)c1cc(-c2cccnc2)nc2ccccc12 (stereo unspecified),-1%,9%
O=S(=O)(NCCO)c1cc(Br)ccc1Br,187%[activator],5%
CCn1c(COc2cccc(C)c2)nc2ccccc21,-1%,27%
COCCn1c(C)cc(O)c(C(c2ccccc2Cl)N2CCN(c3ccccc3)CC2)c1=O (stereo unspecified),7%,-8%

# Structural class: the compounds so far containing a furan ring, fused or not (7)
SMILES,2A Renilla,StopGo FLuc
Cc1c(C(=O)c2ccccc2)oc2ccc(NC(=O)c3ccncc3)cc12,1%,9%
Oc1c(C(c2ccc(Cl)cc2Cl)N2CCN(c3ccccc3)CC2)sc2nc(-c3ccco3)nn12 (stereo unspecified),3%,-5%
Cc1cccc(NS(=O)(=O)c2cc(-c3ccno3)oc2C)c1C,279%[activator],12%
Cc1ccc(N(Cc2ccco2)C(=O)CCc2ncc(-c3ccc(F)cc3F)o2)cc1,-5%,10%
Cc1ccc(OC(C)c2nc(-c3ccc(Br)o3)no2)cc1C (stereo unspecified),-3%,32%[activator]
CCc1nn(CC(=O)N2CCC(C)CC2)c(=O)c2cc3occc3n12,0%,-6%
c1coc(-c2nnc(CSc3ccc4c(c3)OCCCO4)o2)c1,17%,100%[activator]

# Screening data as filed in PubChem BioAssay.
